GIV-Gai inh: inhibitors of GIV peptide binding to Galpha-i3, primary screen, biochemical, fluorescence polarization, FITC-GIV GBA peptide, rat Galphai3 | 90 min; active compounds read low; scaled: aluminum fluoride 0%, vehicle 100% | Guanine nucleotide-binding protein G(i) subunit alpha-3 (Rattus norvegicus), P08753 | 210,000 tested, 0.42% active | percent of control (FP), % (concentration not given with the values);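 active means replicate mean at 85% of control or lower, very high polarization wells dropped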;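 further: wells of about 15 µL received 100 nL stock; the first replicate is given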
Target sequence (P08753 whole entry, looked up): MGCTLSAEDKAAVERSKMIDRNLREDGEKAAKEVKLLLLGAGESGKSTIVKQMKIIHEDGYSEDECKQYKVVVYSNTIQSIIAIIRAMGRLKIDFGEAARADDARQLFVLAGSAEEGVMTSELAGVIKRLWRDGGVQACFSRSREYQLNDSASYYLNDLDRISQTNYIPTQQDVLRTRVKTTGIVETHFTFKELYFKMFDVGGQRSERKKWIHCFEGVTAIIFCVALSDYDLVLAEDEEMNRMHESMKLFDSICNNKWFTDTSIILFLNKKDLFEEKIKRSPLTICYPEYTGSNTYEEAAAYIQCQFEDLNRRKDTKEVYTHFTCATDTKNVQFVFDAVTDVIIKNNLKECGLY
Sa growth 42C: S. aureus growth inhibition at 42 and 30 °C, primary screen, LtaS inhibitor project, RN4220, two temperatures; OD600, 20 h, 42 °C; active compounds read low; relative growth, % (no concentration beside the values); 170,000 tested, 0.53% active; AID 720641, 2013;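 active means growth at 42 °C up to 50% and 20 or more points under that at 30 °C, or under 10% at both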;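 further: 300 nL library stock went into each well; scaled to the means of positive and negative controls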
HCMV UL50-53 inh: inhibitors of HCMV UL50-UL53 interaction, biochemical, HTRF | HCMV UL50-UL53 nuclear egress complex (human cytomegalovirus) | inhibition, % (no concentration beside the values) | normalized percent inhibition | 190,000 tested, 0.15% active | AID 1918969, 2023;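 active means both replicates at 50% or more, plus weaker picks with an unusually low signal ratio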;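 further: stock transfer was 100 nL into about 20 µL; 0% = negative control wells and 100% = wells with untagged competitor protein; inactives centre near -12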
Sa growth 42C second temp: recorded beside Sa growth 42C, whose call it bears; relative growth, %; measured here: growth at 30 °C;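 optical density after 20 h as mean of two plates; 100% = untreated growth and lower means inhibition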
* hit, by the source's call; nt = no result given; & = joins results of further samples.

SMILES | GIV-Gai inh | Sa growth 42C | Sa growth 42C second temp | HCMV UL50-53 inh
Cc1cc(C)c2nc3s/c(=C\c4ccc(-c5ccccc5[N+](=O)[O-])o4)c(=O)n3c2c1 | 104 | nt | nt | -1
N#CCCN1CCNCC1 | 104 | 97 | 91 | -25
CCCCn1nnc(NC(=O)CSc2ccc(Cl)cc2)n1 | 107 | 107 | 106 | 19
C=C(C)CC(NC(C)c1ccccc1)c1ccco1 (stereo not drawn) | 105 | 89 | 89 | nt
CCC1CN(C(=O)N2CCC(C(=O)NCc3ccc(N(C)C)cc3)CC2)c2ccccc2O1 (stereo not drawn) | 102 | 112 | 89 | -3
S=C(Nc1ccccc1Cl)N1CCOC1c1c[nH]c2ccccc12 (stereo not drawn) | 98 | 94 | 86 | -22
CC1c2[nH]c3ccccc3c2CCN1C(=S)Nc1ccccc1 (stereo not drawn) | 103 | 108 | 93 | nt
Cc1cc2n(n1)CC(C)(C(=O)NCc1ccc(F)cc1)N(c1ccc(F)cc1)C2=O (stereo not drawn) | 97 | nt | nt | -5
Fc1ccc(CNCCN2CCOCC2)cc1 | nt | 104 | 89 | -5
CCCCOC(=O)OC1CCS(=O)(=O)C1 (stereo not drawn) | 99 | 98 | 88 | -16
CC1Cn2c(C(=O)NCc3cccc(Br)c3)cc3cccc(c32)S1 (stereo not drawn) | 102 | 111 | 96 | nt
CCN(CC)CCCNC(=O)CCC(=O)NNc1nc2ccccc2c2nc(C)nn12 | 99 | 96 | 90 | -17
CCC1CSC(=Nc2ccc(Cl)c(Cl)c2)N1C(=O)CCc1c(C)[nH]c(=O)c(C#N)c1C (stereo not drawn) | nt | 92 | 92 | -16
CCC(C(=O)NCCC(C)C)n1cnc2oc(C)c(C)c2c1=O (stereo not drawn) | 104 | nt | nt | -28
CC1CCCC(NC(=O)c2ccc3c(=O)n(CC4CCCO4)c(=O)[nH]c3c2)C1C (stereo not drawn) | 99 | 96 | 79 | 6
CCOC(=O)Nc1nnc(-c2ccccc2)s1 | 104 | 91 | 72 | 0
CC(C)NCc1ccc(-c2cccc(Cl)c2)o1 | 105 | nt | nt | -32
CCOC(=O)CC1=CC(=O)N(Cc2ccc(Cl)cc2)c2ccccc2N1 | 109 | nt | nt | -22
Cc1cc(C)c(NC(=O)CSc2nnc3[nH]c(=O)cc(C)n23)c(C)c1 | 91 | 113 | 84 | nt
CCC1CCCCN1C(=O)CSc1ccc(Cl)cc1 (stereo not drawn) | nt | 104 | 96 | -45
CCOC(=O)c1cc(C(C)(C)C)[nH]n1 | 105 | 112 | 92 | 3
O=C(NCCc1ccc(Cl)cc1)c1cc2c(s1)-c1ccccc1OC2 | 100 | 100 | 98 | -1
O=C(CN1CCN(c2ncccn2)CC1)N1CCCC1 | 101 | 138 | 95 | -5
Cc1sc2ncc(C(=O)N3CCN(c4cccc(Cl)c4)CC3)c(=O)n2c1C | 104 | nt | nt | -25
O=C1c2oc3ccccc3c(=O)c2C(c2ccccc2)N1Cc1ccc2c(c1)OCO2 (stereo not drawn) | 100 | 86 | 95 | nt
CC1CCN(S(=O)(=O)c2ccc(NC(=O)Cn3c(=O)sc4ccccc43)cc2)CC1 | 104 | 102 | 90 | -13
CCCCN(CC)C(=O)Nc1cn(C)c(=O)c2ccccc12 | 100 | 86 | 92 | 5
Cc1cccc2c3nc4ccccc4nc3n(CC#N)c12 | 100 | 88 | 74 | -6
CCOc1ccc(OCCCC(=O)NC2=NCCS2)cc1 | nt | 114 | 99 | -7
CCN1CCN(c2ncnc3c2cnn3-c2ccc(C)c(C)c2)CC1 | 108 | 132 | 94 | nt
Cc1c(C(=O)O)oc2ccc3c(c12)C(O)CC(C)(C)O3 (stereo not drawn) | 117 | 81 | 98 | 1
Cn1ccc2cc(S(=O)(=O)N3CCN(C(=O)Nc4ccc(Cl)cc4)CC3)ccc21 | 100 | nt | nt | 8
COc1ccc(Cl)cc1S(=O)(=O)N1CCN(Cc2ccc3c(c2)OCO3)CC1 | 96 | 93 | 78 | -22
Cc1cc(C)n2c(SC3CCCCC3NS(=O)(=O)c3ccccc3)nnc2n1 (stereo not drawn) | 105 | 95 | 94 | nt
Nc1nc2c(c(=O)[nH]1)C(c1ccc(Cl)cc1)CC(=O)N2 (stereo not drawn) | 103 | nt | nt | 9
CC(C)C(C(=O)Nc1ccc(F)cc1)N1Cc2ccccc2C1=O (stereo not drawn) | 104 | 87 | 62 | -22
C=C1CSc2nc(=O)c3c4c(sc3n21)CCC4 | 98 | 96 | 81 | -24
O=C(CCSCc1cccc(F)c1)NCCc1ccccc1 | 108 | 96 | 96 | nt
Cc1ccc(Nc2nc(C(=O)NCc3ccco3)cs2)cc1 | 103 | 146 | 71 | 0
COc1ccc(OCC(O)Cn2c(N3CCCCC3)nc3c2c(=O)n(C)c(=O)n3C)cc1 (stereo not drawn) | 99 | nt | nt | -9

Profiles, looked up by structure.
O=C(CCSCc1cccc(F)c1)NCCc1ccccc1 is entered as GIV-Gai inh = 108; Sa growth 42C = 96; Sa growth 42C second temp = 96; HCMV UL50-53 inh = nt
COc1ccc(Cl)cc1S(=O)(=O)N1CCN(Cc2ccc3c(c2)OCO3)CC1 is entered as GIV-Gai inh = 96; Sa growth 42C = 93; Sa growth 42C second temp = 78; HCMV UL50-53 inh = -22
CC1CCN(S(=O)(=O)c2ccc(NC(=O)Cn3c(=O)sc4ccccc43)cc2)CC1 is entered as GIV-Gai inh = 104; Sa growth 42C = 102; Sa growth 42C second temp = 90; HCMV UL50-53 inh = -13

Other entries
SMILES | GIV-Gai inh | Sa growth 42C | Sa growth 42C second temp | HCMV UL50-53 inh
CCc1cc(CN)on1 | 101 | 86 | 89 | -18
CCC(C(=O)N(Cc1nc2nc(C)cc(=O)n2[nH]1)c1ccccc1)c1ccccc1 (stereo not drawn) | 104 | nt | nt | -26
CCc1ccc(C(=O)CSc2nnc3oc4ccc(S(=O)(=O)N(C)C)cc4n23)cc1 | nt | 103 | 101 | -12
CSc1nn(-c2ccccc2)cc1C(=O)Nc1cccc(C(F)(F)F)c1 | 105 | 79 | 87 | -44
CCCNC(=O)CSc1nc(-c2ccc(OC)cc2)cc(C(F)(F)F)n1 | 102 | 102 | 91 | nt
Cn1cc2c(=O)[nH]nnc2n1 | 98 | 93 | 94 | -13
CC(=O)N1CCCC1c1nc2ccccc2n1Cc1cccc(Cl)c1 (stereo not drawn) | 104 | 98 | 82 | -34
COc1ccc(NC(=O)c2ccc3c(=O)n4nc(Nc5cc(C)ccc5C)sc4nc3c2)cc1 | 106 | 117 | 110 | nt
O=C1NCCN/C1=C\c1ccc2ccccc2n1 | nt | 87 | 86 | -70
CCCN(CCC)S(=O)(=O)c1ccc(C(=O)Nc2cccc(SC)c2)cc1 | 102 | 105 | 83 | -15
COC(=O)c1cc(NC(=O)C2CCCN(S(=O)(=O)N3CCC(C)CC3)C2)cc(C(=O)OC)c1 (stereo not drawn) | 98 | 91 | 79 | -9
O=C1OCc2cc(NS(=O)(=O)c3ccc(C4CCCCC4)cc3)ccc21 | 107 | 110 | 65 | nt
O=S(=O)(NC1CCCC1)c1ccccc1Cl | nt | 95 | 94 | -7
CCC1CCc2nc3sc(C(=O)Nc4ccccc4C(F)(F)F)c(N)c3cc2C1 (stereo not drawn) | 98 | 88 | 95 | nt
COCCn1c(C)cc(C(=O)COC(=O)CN2C(=O)c3ccccc3C2=O)c1C | nt | 107 | 96 | -10
Cc1ccc(C(=O)Cn2nc3n(C(C)C)c(=O)c4ccc(C(=O)NC5CCCC5)cc4n3c2=O)c(C)c1 | 103 | nt | nt | -41
Cc1cc(C)n(CCCNC(=O)CSc2nnc3n2CCCCC3)n1 | nt | 88 | 90 | -16
S=C(NC1=NCCS1)Nc1ccccc1 | 99 | 105 | 93 | -10
CC1(C)C(=O)N(CC(O)CNc2ccccc2)C(=O)N1CN1C(=O)N(CC(O)CNc2ccccc2)C(=O)C1(C)C (stereo not drawn) | 102 | 89 | 86 | -20
CCOC(=O)c1ccc(OC(=O)c2cn(-c3ccc(C)cc3)c(=O)c3ccccc23)cc1 | 106 | 95 | 87 | nt
O=C(c1cc2cccnc2n(Cc2ccccc2)c1=O)N1CCCC1 | 105 | nt | nt | 19
CCCOC(=O)c1c(NC(=O)OC)sc2c1CCCCC2 | 100 | 126 | 105 | -10
Cc1nn(-c2ccccc2)c2c1-c1sc(C(=O)NCCCN3CCCCC3C)cc1CC2 (stereo not drawn) | 110 | nt | nt | -60
COCC(C)n1c(COc2ccccc2F)nnc1SCC(=O)Nc1nc(C)cs1 (stereo not drawn) | nt | 96 | 94 | -16
CCOc1ccc(NC(=O)N2CCN(CC(=O)c3c[nH]c4ccc(OC)cc34)CC2)cc1 | 113 | nt | nt | -10
CN1CCc2c(sc(N)c2C(=O)O)C1 | 105 | 101 | 81 | -50
COc1ccc(CNc2oc(-c3ccc(COc4ccccc4C)o3)nc2C#N)cc1 | 101 | 137 | 62 | -12
COc1ccccc1N1CCN(c2ccc(=O)n(CC(=O)Nc3cccnc3)n2)CC1 | 120 | nt | nt | -27
COCCNC(=O)c1cc2ccccc2o1 | 97 | 73 | 94 | 9
CC1=C(C(=O)OCCOc2ccccc2)C(c2ccc(OCc3ccccc3)cc2)NC(=O)N1C (stereo not drawn) | 104 | nt | nt | -7
CCOC(=O)c1c(NC(=O)c2ccc(S(=O)(=O)N(CCOC)CCOC)cc2)sc2c1CC(C)(C)NC2(C)C | 100 | 96 | 84 | nt
COc1ccc(C(=O)c2oc3ccccc3c2NC(=O)c2ccc(F)cc2)cc1 | 107 | 100 | 90 | -27
Cc1ccc(CSc2nnc(-c3ccc(C(F)(F)F)cn3)s2)cc1 | 109 | 112 | 80 | 0
Cc1sc2nc(C(C)OC(=O)c3ccc4c(c3)C(=O)N(Cc3ccco3)C4=O)[nH]c(=O)c2c1C (stereo not drawn) | nt | 96 | 101 | -26
CCCCN(CC)CCCNC(=O)Cn1nc(CC)n2c(cc3sccc32)c1=O | 105 | 115 | 96 | -13
O=C1NC(=Nc2ccccc2Cl)S/C1=C/c1ccc([N+](=O)[O-])cc1 | 105 | nt | nt | -32
CCN1CC(=O)Nc2cc(C(=O)O)ccc21 | 104 | nt | nt | 12
Cc1ccc(C2CC(c3c(F)cccc3Cl)n3nc(N)nc3N2)cc1 (stereo not drawn) | 99 | 94 | 80 | nt
COc1ccc(Cn2nnnc2CN2CCN(c3cc(Cl)ccc3C)CC2)cc1 | 99 | 102 | 89 | -20
COc1ccc(CCNC(=O)CSc2ccc(C)cc2)cc1OC | nt | 100 | 95 | 5
Cc1ccc2[nH]c(=O)c(C(c3nnnn3C3CCCC3)N(C)C3CCCCC3)cc2c1 (stereo not drawn) | 97 | 76 | 87 | -63
Cc1ccccc1-n1cnnc1SCC(=O)NC1(C#N)CCCC1 | nt | 102 | 86 | -5
CCCCC(=O)N1CCN(c2cc(C)c(C(=O)CC)cc2F)CC1 | 106 | 82 | 88 | -5
COc1cccc(CCNC(=O)c2ccc3c(c2)nc(C)c(=O)n3Cc2ccccc2)c1 | 102 | nt | nt | -17
CC(C)(C)NC(=O)CCc1nc2ccccc2s1 | nt | 89 | 95 | -1
Cc1ccccc1-c1nc(CS(=O)(=O)CC(=O)Nc2c(C)cccc2C)c(C)o1 | 105 | 104 | 87 | 1
CCN1CCN(C(=O)c2cccc(F)c2F)CC1 | 103 | 97 | 81 | -16
O=C(c1ccccc1C(F)(F)F)N1CCN(c2ccccc2F)CC1 | nt | 99 | 96 | 4
Cc1cccc(NC(=O)c2cnn(-c3ccccc3)c2-n2cccc2)c1C | 98 | 97 | 92 | -9
CC(C)(C)C(=O)NC1CC(=O)N(c2ccc3c(c2)OCCO3)C1 (stereo not drawn) | 99&101 | 90 | 96 | nt
CCc1ccccc1Nc1nc(N)nc(CSCC(=O)c2cc(C)n(C)c2C)n1 | nt | 85 | 97 | -10
c1ccc2c(c1)N=C(NNC1=Nc3ccccc3SC1)CS2 | 103 | 101 | 97 | -13
O=C(c1cccc(S(=O)(=O)N2CCCC2)c1)N(CC1CCCO1)c1nc2ccccc2s1 (stereo not drawn) | nt | 89 | 85 | -25
CCOc1ccccc1CNC(=O)Cn1ncn2nc(-c3cccs3)cc2c1=O | 101 | 119 | 92 | -5
Cc1cc(Cl)ccc1N1C(=O)c2cc3ccsc3n2CC1(C)C(=O)NC1CCCCC1 (stereo not drawn) | 106 | nt | nt | -29
COc1cc(-c2nc3sccn3c2Nc2c(C)cccc2C)ccc1O | 107 | 72 | 67 | -9

A different layout for six compounds above:
Screens in order – GIV-Gai inh	Sa growth 42C	Sa growth 42C second temp	HCMV UL50-53 inh
- Cc1cc(Cl)ccc1N1C(=O)c2cc3ccsc3n2CC1(C)C(=O)NC1CCCCC1 (stereo not drawn)
  106	nt	nt	-29
- c1ccc2c(c1)N=C(NNC1=Nc3ccccc3SC1)CS2
  103	101	97	-13
- Cc1ccc2[nH]c(=O)c(C(c3nnnn3C3CCCC3)N(C)C3CCCCC3)cc2c1 (stereo not drawn)
  97	76	87	-63
- Cc1ccccc1-c1nc(CS(=O)(=O)CC(=O)Nc2c(C)cccc2C)c(C)o1
  105	104	87	1
- Cc1ccccc1-n1cnnc1SCC(=O)NC1(C#N)CCCC1
  nt	102	86	-5
- COc1cccc(CCNC(=O)c2ccc3c(c2)nc(C)c(=O)n3Cc2ccccc2)c1
  102	nt	nt	-17

From PubChem
